Source: PubChem
VDR inh – blocks the human vitamin D receptor | P11473 | VDR-SRC2-3 peptide fluorescence polarization, 2 h | Potency, µM, for the others: max response, negative = inhibition, actives largely listed as inhibitors | 400,000 tested, 0.93% active; active = well fitted inhibition curve with a large enough effect; inconclusive = small, poorly fitted or top-dose-only effect, or another doubt; inactive = no such curve, though single readings can be large or run the other way; note: series mostly up to about 120 µM
Target sequence (P11473 whole entry, looked up): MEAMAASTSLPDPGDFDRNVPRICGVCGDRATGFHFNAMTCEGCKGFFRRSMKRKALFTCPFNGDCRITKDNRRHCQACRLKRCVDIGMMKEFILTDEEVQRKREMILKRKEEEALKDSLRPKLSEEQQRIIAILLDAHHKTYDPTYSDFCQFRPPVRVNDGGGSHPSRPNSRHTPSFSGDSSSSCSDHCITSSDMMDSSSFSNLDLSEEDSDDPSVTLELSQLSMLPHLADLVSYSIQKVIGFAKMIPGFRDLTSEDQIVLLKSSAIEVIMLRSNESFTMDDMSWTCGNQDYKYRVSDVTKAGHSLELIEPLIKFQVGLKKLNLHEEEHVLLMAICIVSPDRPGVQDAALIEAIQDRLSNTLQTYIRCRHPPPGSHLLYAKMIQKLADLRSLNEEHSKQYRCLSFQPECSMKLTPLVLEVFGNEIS
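Inhibition of the VDR/SRC2-3 peptide interaction is quantified by fluorescence polarization. Compounds (23 nl, pintool) incubate with the reagents for 2 hours at ambient room temperature.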
The depositor's hits bear a star; u = inconclusive; & = joins results of further samples. % is set by controls: 0 for no effect and ±100 for the full control effect; potency is the fitted concentration of half-maximal effect. This is a subset (hit frequency here may not be typical).

VDR inh	molecule
5.5%	COC(=O)Cc1[nH]nc2c1C(c1cc(OC)c(OC)c(OC)c1)C(C#N)=C(N)O2 (stereo not given)
1.4%	CCCCCCCCCCCCN1[C@@H](CC(C)=O)c2cc(F)ccc2S1(=O)=O
-9.5%	COc1ccccc1NC(=O)CCN1C(=O)C2CC=CCC2C1=O (stereo not given)
1.0%	N#Cc1c2c(c(NCc3ccco3)n3c1nc1ccccc13)CCC2
-8.0%	Cc1ccc(OCC(=O)Nc2ccc(N3CCN(C(=O)c4ccco4)CC3)cc2)cc1C
0.3%	Cc1cc(C)c(N(Cc2ccccc2)S(=O)(=O)c2ccc(OCCNC(=O)c3cc4ccccc4o3)cc2)c(C(=O)NO)c1
16.3%	Cc1csc(=O)n1CC(=O)OC(C)C(=O)Nc1ccc(F)c(F)c1F (stereo not given)
-19.6%	CCOc1cc(-c2sc(Nc3cc(C)ccc3OC)n[n+]2-c2ccccc2)ccc1OC
-3.6%	CCOc1ccccc1C(=O)Nc1ccc(S(=O)(=O)Nc2ncccn2)cc1
-8.8%	CCCCn1c(-c2cccnc2)nc2cc3[nH]c(=O)c(C(C)C)nc3cc21
0.0%	COc1ccc(CC(=O)OC2CCCN(C)C2)cc1 (stereo not given)
-2.7%	CCCCCCNC(=O)c1cn(CC)c2cc(N3CCN(C)CC3)c(F)cc2c1=O
u	Cc1[nH]c2ccccc2c1C(c1ccccn1)N1CCC(C(N)=O)CC1 (stereo not given)
3.0%	COc1ccc(C(=O)/C=C2\Sc3ccccc3N2C)cc1
-1.2%	COc1ccc(OC)c(NS(=O)(=O)c2cc3c4c(c2)CCN4C(=O)CC3)c1
4.7%	C=CCc1c(C)nc(C)nc1N/N=C/c1ccc(F)cc1

Arranged by value in VDR inh (low to high): some entries from above
| SMILES | VDR inh |
| --- | --- |
| CCCCCCNC(=O)c1cn(CC)c2cc(N3CCN(C)CC3)c(F)cc2c1=O | -2.7% |
| COc1ccc(CC(=O)OC2CCCN(C)C2)cc1 (stereo not given) | 0.0% |
| COc1ccc(C(=O)/C=C2\Sc3ccccc3N2C)cc1 | 3.0% |

(further entries)
VDR inh	molecule
-17.9%	Cc1cc(CNC(=O)[C@]2(C(F)(F)F)C[C@H](CCC3CCCCC3)CCCO2)nn1C
-24.2%	Nc1c(Cl)c(Cl)nc(C(=O)OCC(=O)N2CCCC2=O)c1Cl
-18.9%	O=C(N/N=C/c1ccc(-c2ccccc2)o1)c1ccccc1O
-10.3%	Cc1cc(Cl)ccc1OCC(=O)NC(=S)Nc1ccc(Cl)cn1
12.8%	O=c1c2c(-c3cccs3)csc2[nH]c(=S)n1-c1ccccc1
-2.2%	O=C(COc1ccccc1)NC1CCCc2ccccc21 (stereo not given)
3.3%	C=CCNc1oc(-c2cccs2)nc1C#N
-9.6%	CC(=O)N1CCN(C(=O)CN2C(=O)NC(C)(c3ccc4ccccc4c3)C2=O)CC1 (stereo not given)
0.7%	Cc1ccc(NCC(=O)N/N=C\c2ccc([N+](=O)[O-])o2)cc1
12.2%	COC(=O)c1ccc(/C=N/NC(=O)C2CC(=O)N(c3ccc(F)cc3)C2)cc1 (stereo not given)
21.9%	CC1=NN(/C(=N\c2nnc(C)s2)Nc2ccccc2)[C@H](c2cccc3ccccc23)S1
3.2%	O=[N+]([O-])c1cccc(-c2ccn[nH]2)c1
-1.5%	Cc1cccc(NC(=O)Cc2nc(-c3c[nH]c(C(=O)N4CCCC4)c3)cs2)c1
7.2%	CCN1CCN(c2ccc(NC(=O)COc3ccc(Cl)cc3C)cc2)CC1
2.4%	Cc1ncc(C[n+]2csc(C)c2C)c(N)n1
-0.9%	Cn1cnnc1SCC(=O)NNC(=O)COc1ccc(Br)cc1
-6.2%	O=C(CNc1ccc(F)cc1Cl)Nc1cccc(S(=O)(=O)N2CCCCC2)c1
5.3%	O=C(NCc1ccccn1)C1CCN(Cc2cccc(OCc3ccccc3)c2)CC1
4.5%	COC(=O)c1cc(OC)c(OC)cc1NC(=S)N1CCN(c2ccccc2)CC1
-9.9%	CN(C(=O)CC1C(=O)NCCN1Cc1ccc(F)cc1)C1CCOCC1 (stereo not given)
6.0%	O=C(COc1ccccc1)NNC(=O)c1cc2ccccc2o1
-8.4%	Cc1ccc(NC(=O)CCS(=O)(=O)c2ccc(Br)s2)c(Br)c1
-4.3%	Cc1cc2nc(C(F)(F)F)[nH]c(=O)n2n1
-2.3%	O=C(O)c1cccc(Cn2cc(Cl)cn2)c1

Arranged by length of the SMILES (largest number first): some entries from above
VDR inh	molecule
5.3%	O=C(NCc1ccccn1)C1CCN(Cc2cccc(OCc3ccccc3)c2)CC1
-8.4%	Cc1ccc(NC(=O)CCS(=O)(=O)c2ccc(Br)s2)c(Br)c1
-4.3%	Cc1cc2nc(C(F)(F)F)[nH]c(=O)n2n1

Going on with the list:
VDR inh	molecule
u	Cc1ccc(C(=O)COC(=O)CCc2nc3ccccc3[nH]c2=O)cc1C
-2.7%	CN(CC(=O)Nc1cccc(F)c1)C(=O)CSc1ccccc1
-15.3%	O=C(c1ccc2c(c1)N(Cc1ccccc1)C(=O)c1ccccc1S2=O)N1CCC(Cc2ccccc2)CC1 (stereo not given)
9.7%	Cn1nc(-c2ccccc2)c(CO)c1Sc1ccccc1
-20.0%	CCC(CC)CN1CCN=C1Nc1ccccc1
23.6%	Cc1ccc2cc(C(c3nnnn3Cc3ccccc3)N3CCc4ccccc43)c(=O)[nH]c2c1 (stereo not given)
21.4%	Cc1ccccc1-n1cc(-c2ccccc2)nc1SCC(=O)Nc1ccc(F)cc1
9.6%	COc1ccc(-c2nc3cc(NC(=O)COc4ccc(C)c(C)c4)ccc3o2)cc1
-20.5%	Fc1ccc(COc2ccc(Cl)cc2/C=N/Nc2nc(N3CCCC3)nc(N3CCCC3)n2)cc1
-9.2%	Cc1ccc(CSCc2ccc(C(=O)NC3CC3)o2)cc1
-16.4%	CCNc1ccc(C(=O)OCC(=O)c2cc(C)n(Cc3ccc4c(c3)OCO4)c2C)cc1[N+](=O)[O-]
2.5%	COC(=O)[C@H](Cc1ccccc1)NC(=O)NCc1ccccc1OC
-20.0%	COCCNC(=O)CN1C(=O)CSc2ccc(S(=O)(=O)N3CCOCC3)cc21
-7.2%	Cc1c(C(=O)NC2CCCc3ccccc32)oc2ccc(S(=O)(=O)N3CCOCC3)cc12 (stereo not given)
-12.8%	Clc1ccc(OCCCN2CCc3ccccc3C2)c(Br)c1
-2.6%	O=C(Nc1cc(Oc2ccccc2)cc([N+](=O)[O-])c1)C12CC3CC(C1)CC(n1cnc(Cl)n1)(C3)C2
u	O=C(O)c1[nH]c2ccccc2c1C(c1cc(Br)ccc1O)c1c(C(=O)O)[nH]c2ccccc12
u	OCC1(CCc2ccccc2)CCN(Cc2cc(F)ccc2-n2cccn2)CC1
4.2%	CC(C)(C)Cc1nnc(NC(=O)c2ccc([N+](=O)[O-])cc2)s1
12.6%	Cc1cc(C)c(Cn2c(=O)n(Cc3ccccc3)c(=O)c3c(C)c(C)sc32)c(C)c1
-27.3%	O=C(CCCCCN1C(=O)c2ccccc2C1=O)Nc1nccs1
35.5µM*	CC(=O)Nc1ccc(S(=O)(=O)Oc2cccc(/C=C3\SC(N)=NC3=O)c2)cc1
12.6%	COc1cc(Cl)c(NC(=O)c2cc3ccccn3n2)c(OC)c1
-1.7%	Cc1ccc(C(C(=O)NC2CCCCC2)N(Cc2ccco2)C(=O)C2COc3ccccc3O2)o1 (stereo not given)
-14.4%	O=C(Cn1nc(Cc2cccnc2)c2ccccc2c1=O)NCC1COc2ccccc2O1 (stereo not given)
-8.4%	CCOc1ccc(NC(=O)COC(=O)CCC(=O)c2cccs2)cc1
-0.9%	CCOc1cc(/C=C/c2ccc3cccc([N+](=O)[O-])c3n2)ccc1OCC(=O)N(C)C
8.1%	O=C(CSc1oc(-c2ccc(F)cc2)nc1S(=O)(=O)c1ccccc1)c1ccc(Cl)cc1
u	CCOc1ccc(-n2c(N)c(C(=O)NCc3ccco3)c3nc4ccccc4nc32)cc1
-22.0%	Cc1nn(Cc2ccccc2Cl)c2sc(C(=O)OC3CCCC3=O)cc12 (stereo not given)
11.2%	CC(NC(=O)C1CCN(S(=O)(=O)Cc2ccccc2)CC1)c1ccccc1 (stereo not given)
-3.6%	O=C(N1CCOCC1)N1CCN(S(=O)(=O)c2ccc(Cl)cc2)CC1
6.4%	Cc1cccc(C)c1NC(=O)CN1CCN(C(=O)c2ccc(OCc3cn4ccccc4n3)cc2)CC1
4.7%	CN1C(C(=O)c2ccccc2)=C(N)c2ccccc2S1(=O)=O
-9.1%	CN(C)CC(=O)Nc1nc(-c2ccccc2)cs1
-13.4%	O=C(NCc1ccc(Cl)cc1Cl)c1ccc2nc[nH]c2c1
14.3%	O=C(CCCOc1ccc(Cl)cc1Cl)Nc1ccccc1C(=O)O
-11.0%	Cc1csc2nc(COc3ccc(NC(=O)C(C)C)cc3)cc(=O)n12
-2.3%	CN(C)CCCOc1ccc2c(c1)Sc1ccccc1CC2=O
4.3%	O=C(Nc1c2c(nn1-c1cccc(Cl)c1)CS(=O)(=O)C2)C1CC1
-2.0%	COc1ccccc1NC(=O)COc1ccc(C(=O)NC2CCCc3ccccc32)cc1OC (stereo not given)
-6.0%	CSCCC(NC(=O)C1CC1)c1nc2ccccc2[nH]1 (stereo not given)
-10.0%	CC(C)=CCC/C(C)=C/CC/C(C)=C/COc1ccc2ccc(=O)oc2c1
-2.2%	CCNC(=O)c1ccc2c(c1)C1C3CCC(C3)C1C(c1ccccc1)N2 (stereo not given)
-18.4%	Cc1ccc(C)c(SCC(=O)Nc2cccnc2Cl)c1
-1.3%	Cc1cc(C)nc(-n2cc(C(=O)c3cc(F)ccc3O)cn2)n1
2.4%&8.9%&1.8%&1.6%&-4.7%	CCN1CCC[C@H]1CNC(=O)c1cc(S(N)(=O)=O)ccc1OC
16.5%	COC(=O)CSc1nnc(-c2cccc(NC(=O)c3ccc(C)cc3)c2)n1C
-7.0%	Cc1ccc(C)c(Nc2c([N+](=O)[O-])ccc3nonc23)c1
-0.7%	CC(=O)CC1(C)OC(N)=C(C#N)C1(C#N)C#N (stereo not given)
6.3%	CN1CCN(S(=O)(=O)c2cccc(C(=O)Nc3cc(C(N)=O)cc(C(N)=O)c3)c2)CC1
-13.6%	CCN1CC(C)C(O)(c2ccccc2)CC1C (stereo not given)
-8.2%	Cc1ccc(-n2c(-c3ccco3)nc3nc4ccccc4nc32)cc1
-11.2%	COc1ccc(/C=C2\SC(=O)N(CCNC(=O)Cn3[nH]c(=O)c4ccccc4c3=O)C2=O)cc1
2.4%	O=S(=O)(c1cnc(Cl)c(Br)c1)N1CCCCCC1
-3.8%	c1ccc2c(c1)OC(CCCN1CCCCC1)c1ccccc1S2 (stereo not given)

Among those listed so far, these have a nitro group on carbon.
VDR inh	molecule
0.7%	Cc1ccc(NCC(=O)N/N=C\c2ccc([N+](=O)[O-])o2)cc1
3.2%	O=[N+]([O-])c1cccc(-c2ccn[nH]2)c1
-16.4%	CCNc1ccc(C(=O)OCC(=O)c2cc(C)n(Cc3ccc4c(c3)OCO4)c2C)cc1[N+](=O)[O-]
-2.6%	O=C(Nc1cc(Oc2ccccc2)cc([N+](=O)[O-])c1)C12CC3CC(C1)CC(n1cnc(Cl)n1)(C3)C2
4.2%	CC(C)(C)Cc1nnc(NC(=O)c2ccc([N+](=O)[O-])cc2)s1
-0.9%	CCOc1cc(/C=C/c2ccc3cccc([N+](=O)[O-])c3n2)ccc1OCC(=O)N(C)C
-7.0%	Cc1ccc(C)c(Nc2c([N+](=O)[O-])ccc3nonc23)c1

(further entries)
VDR inh	molecule
0.7%	COc1cc(C2Nc3ccccc3NC3=C2C(=O)CC(C)(C)C3)cc(OC)c1OC(C)=O (stereo not given)
-0.5%	CNc1nc(-c2cccs2)cc(C(F)(F)F)c1C#N
-3.8%	CCN(CC)c1ccc(C(=O)OCC(=O)Nc2ncccn2)cc1
-14.2%	O=S1(=O)c2ccccc2N(Cc2ccccc2F)c2ccccc21
-4.7%	CCCC(CCC)C(=O)NC1CCN(Cc2ccccc2)CC1
-0.3%	CC(C)C(=O)N=c1sc2cccc(F)c2n1C
17.3%	O=C(COc1ccc(Br)cc1)NN1C(=O)c2ccccc2C1=O
9.3%	CCn1c(SCC(=O)Nc2ccc(N(C)C)cc2)nnc1-c1cccc(C)c1
1.0%	CCCC(c1nnnn1Cc1cccs1)N1CCN(C)CC1 (stereo not given)
10.4%	Cc1cc(C(=O)N/N=C2\CC(=O)c3ccccc32)c(C)n1-c1ccc(F)cc1
2.0%	COc1ccc(C(=O)COC(=O)CCC(=O)c2cccs2)cc1
21.6%	Cc1ccc(C(=O)N2CCc3cc(CNC(=O)CCc4ccccc4)ccc32)cc1
-10.9%	C=CCOc1cccc(C2C(C(=O)c3ccc(C)o3)=C(O)C(=O)N2Cc2ccncc2)c1 (stereo not given)
-0.8%	O=C(c1ccc2c(c1)N(Cc1ccccc1F)C(=O)c1ccccc1S2=O)N1CCOCC1 (stereo not given)
-7.3%	CCn1c(SCC(=O)c2ccccc2)nc2ccccc2c1=O
-8.2%	Fc1cc2[nH]c(=S)[nH]c2cc1Cl
-0.2%	COc1ccc(CNC(=O)c2cc3cc(S(=O)(=O)N4CCCCC4)ccc3n2C)c(OC)c1
6.2%	CCOc1ccc(C(c2c(NC(=O)c3ccco3)sc(C)c2C)N2CCOCC2)cc1 (stereo not given)
3.5%	COc1ccccc1C(=O)NNC(=O)C1CCCO1 (stereo not given)
1.7%	Cc1ccc([C@@H]2[C@@H]3C(=O)N(c4ccccc4)C(=O)[C@@H]3[C@]3(C)C(=O)N(Cc4ccc(-c5ccccc5)cc4)CC(=O)N23)o1
-2.6%	COC(=O)[C@@H]1C[C@@]2(O)[C@H](O)[C@H](O)[C@H](O)C[C@H]2N1Cc1cc(F)ccc1F
-12.1%	Cc1cc(C)c(NC(=S)N2CCCC2C(=O)O)c(C)c1 (stereo not given)
1.7%	Cc1nnc(SCC(=O)Nc2ccc(O)cc2)c2ccccc12
-15.9%	CNC(=S)NNC(=O)c1sccc1OCc1cccc(C(F)(F)F)c1
